# High-throughput results as filed in PubChem BioAssay.
# Biofilm kill mix = mixtures killing C. albicans biofilm; C. albicans biofilm persisters + clotrimazole, fluorescence viability; primary screen in compound mixtures of four per well; inhibition, % at 7.6 µM; hit rate 0.02% among 120,000;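 active = inhibition above 30.3% in the primary screen of four-compound pools, then above 30% when the compound was retested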;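 note: compounds exposed to preformed 24 h biofilms for 48 h; the number belongs to the whole pool; some results filed as inactive read as strong as hits; inactives centre near 12; 0% = biofilm with clotrimazole alone and 100% = kill control; retested singly at about 60 µM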
#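 Test system: C. albicans biofilms. Buffer or medium: RPMI/MOPS medium, pH 7.0. Timing: 48 h compound exposure at 37 °C. Technique: Alamar Blue fluorescence. Evaluation: percent inhibition of biofilm viability.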
# The depositor's hits bear a star. Not all compounds are listed; the hit share may differ from the screen's.
SMILES	Biofilm kill mix
Cc1ccc(-n2c(P(C)(=O)O)nc3ccccc32)cc1	10
Cc1ccc(S(=O)(=O)NCc2ccncc2)c(C)c1C	-4
CCc1ccccc1N1C(=O)CC(N2CCc3ccccc32)C1=O (stereo not drawn)	13
Cc1ccc(-n2nnnc2CSc2nnc(-c3ccc(O)cc3)o2)cc1	15
CCOC(=O)c1ccc(N2CN(CC)CNC2=S)cc1	22
COc1ccccc1N1CCN(C(=O)c2cc(C)oc2C)CC1	11
CC(=O)c1sc(=S)n(-c2ccccc2)c1C	8
COCCCNC(=S)Nc1ccc2c(c1)OCCO2	0
NC1=NC(=O)/C(=C\c2ccc(O)c([N+](=O)[O-])c2)S1	9
Cc1ccc(-n2c(=S)[nH]c3sc4c(c3c2=O)CCc2ccccc2-4)cc1	11
COc1ccc(C2CC3(O)CC(C#N)(C(=O)N3)C2(C#N)C#N)cc1 (stereo not drawn)	12
O=C(NCCCN1CCOCC1)c1ccc2c(c1)N(Cc1ccccc1)CCS2	20
COc1cccc(/C=C/C(=O)OCC(=O)c2c[nH]c3ccccc23)c1OC	19
CCOc1ccc(NC(=O)c2cc(SC)ccc2Cl)cc1	29
C=CCN(c1ccc(F)cc1)S(=O)(=O)c1cc(C(=O)OCC(=O)N(C)C2CCS(=O)(=O)C2)ccc1Cl (stereo not drawn)	12
O=S(=O)(Nc1ccncc1Cl)c1ccc2ccccc2c1	14
Cc1ccc(C)c(SCC(=O)Nc2cccc(S(=O)(=O)NC3=NCCCCC3)c2)c1	6
COc1ccc(/C=C/C(=O)NC(=S)N2CCN(c3ccccc3OC)CC2)cc1	6
CC(=O)c1ccn(S(=O)(=O)c2ccccc2)c1	17
O=C(CN1CCN(C/C=C/c2ccccc2)CC1)NCc1ccccc1	13
CC(C)(C)CN1CCNC(=O)C1CC(=O)N1CCOc2ccccc2C1 (stereo not drawn)	5
CC(C)CCNC(=O)C(C)N(C(=O)c1snc(C(N)=O)c1N)c1cnc2ccccc2c1 (stereo not drawn)	-9
O=[N+]([O-])c1ccc([N+](=O)[O-])c(Nc2ccc(N3CCOCC3)cc2)c1	14
CCCCNC(=S)Nc1ccc2nc3n(c(=O)c2c1)CCCCC3	9
CC(=O)N1c2ccc(N=Cc3cc(Br)cc(Br)c3O)cc2CC1C (stereo not drawn)	5
COC(=O)c1c(C)[nH]c(C)c1-c1cccc([N+](=O)[O-])c1	5
N/C(=N\OC(=O)c1cccs1)c1ccccc1	7
COC(=O)CNC(=O)/C=C/c1cc(Br)ccc1OC	3
C/C(=N\N1C(=O)CSC1=S)c1ccc(Br)cc1	3
COc1ccc(NC(=O)C(NCC(C)C)c2ccccc2)cc1Cl (stereo not drawn)	14
CCc1ccc(OCc2nnc(SCC(=O)N3CCN(c4ccccc4)CC3)o2)cc1	18
O=C(O)/C=C/c1ccc(S(=O)(=O)Nc2ccc(OCc3ccccc3)cc2)cc1	16
O=C(O)CCn1cc(/C=C/C(=O)c2ccc(Cl)cc2)c(-c2ccc(Br)cc2)n1	12
O=C(NC1(C(F)(F)F)NC(=O)N(c2ccc(F)cc2)C1=O)c1ccncc1 (stereo not drawn)	-7
O=C(O)c1ccccc1S	7
CC(C)CNC(=O)COC(=O)c1cccc(S(=O)(=O)NCC(F)(F)F)c1	22
CC(C[N+](C)(C)C)OC(N)=O (stereo not drawn)	6
CNC(=O)CSc1nc2c([nH]c3ccccc32)c(=O)n1CCOC	8
CCOC(=O)c1oc2c(c1C)C(=O)CCC2	13
COc1ccc(C(=O)/C=C/Nc2ccc(C)cn2)cc1OC	-10
Nc1cccc(C(=O)OCC(=O)NC2CCCc3ccccc32)c1 (stereo not drawn)	9
CCCCCCNC(=O)CC(c1ccccc1)c1cc(Br)ccc1O (stereo not drawn)	8
Cc1ccc(N(CN2CCCC2=O)C(=O)c2ccccc2)cc1	12
Nc1ccc(-c2nc3cc(N)ccc3n2CCO)cc1	21
O=C(CNC(=O)c1ccc2c(c1)OCCO2)N/N=C/c1ccc(O)cc1O	15
COc1ccc(CNC(=O)CCC(=O)Nc2nnc(C(C)C)s2)cc1	28
Cc1ccc2[nH]c3c(=O)n4c(nc3c2c1)SCC4	21
Cn1c(=O)oc2cc(S(=O)(=O)N3CCC(C(=O)NCCc4ccccc4)CC3)ccc21	17
NC(=O)c1ccc(NCCCN2CCOCC2)c([N+](=O)[O-])c1	13
CCNC(=S)N/N=C/c1ccc(F)cc1	18
NS(=O)(=O)c1ccc(CCNC(=O)CCCOc2ccccc2)cc1	9
Cc1ccc(-n2c(O)c(/C=N/NC(=O)C3COc4ccccc4O3)c3ccccc3c2=O)cc1 (stereo not drawn)	13
c1cc(CN2CCN(C3CCCCCC3)CC2)ccn1	7
CCOC(=O)Cc1n[nH]c(=O)c2ccccc12	12
CC(C(=O)N1CCOCC1)N1C(=O)C2C3CC(C(Br)C3Br)C2C1=O (stereo not drawn)	22
O=C(c1ccccc1)N1CCN(C(=S)NCc2ccc3c(c2)OCO3)CC1	4
Cc1ccc(N2Cc3ccccc3C2=S)cc1	15
O=C(O)COCC(=O)NCc1csc2ccccc12	22
CSc1nc(-c2ccccc2)nc(NC(=O)c2ccccc2)c1C(C)=O	13
COc1ccc(/C=N/NC(=O)C(O)(c2ccccc2)c2ccccc2)cc1OC	11

# Remaining list, next part.
SMILES	Biofilm kill mix
Cc1ccc(NC(=O)COc2ccc(C3SCCS3)cc2)cc1	6
COc1ccccc1NS(=O)(=O)c1ccc(O)c(C(=O)OCC(=O)N2CCc3ccccc32)c1	14
CC(=O)COc1ccc2c(C)c(-c3ccccc3)c(=O)oc2c1	11
COc1ccccc1NC(=O)C1=C(C)Nc2nc3ccccc3n2C1c1cccs1 (stereo not drawn)	14
C=CCc1cccc(/C=N/NC(=O)c2ccccc2OC)c1O	-4
C=CCn1c(SCC(=O)Nc2cc(C)on2)nnc1C1COc2ccccc2O1 (stereo not drawn)	14
CN(C)CCNC(=O)/C(=C/c1cccc([N+](=O)[O-])c1)NC(=O)c1ccccc1	20
O=C(c1cccc([N+](=O)[O-])c1)c1ccccn1	12
CCOC(=O)/C(C#N)=N/Nc1c(S(=O)(=O)Cc2ccco2)csc1C(=O)OC	13
CC(C)c1ccc(C2NC(=S)NC3=C2C(=O)CCC3)cc1 (stereo not drawn)	7
CC(C)(C)CN1CCNC(=O)C1CC(=O)NCCc1ccccc1C(F)(F)F (stereo not drawn)	12
COc1ccc(NC(=O)/C(C#N)=C\c2ccc(N3CCOCC3)o2)cc1	25
O=C(OC1Cn2c(=O)ccc(=O)n2C1)c1ccccc1	3
COc1ccc(/C=C/C(=O)OCc2nc3ccccc3c(=O)[nH]2)c(OC)c1	15
CCOC(=O)C1=NN(C(=O)c2ccco2)C2(CC2)C1	14
O=C(c1cc2ncc(Br)cn2n1)N1CCCCC1	11
Cc1ccc(F)cc1CNC(=O)c1cc(COc2ccc3ncccc3c2)on1	10
CC(=O)c1ccc(NC(=O)C(C)Sc2ccccn2)cc1 (stereo not drawn)	11
CC(=C/C(=O)O)/C=C/c1ccc(Cl)o1	14
CC(=O)Nc1sc(N/N=C\c2ccccc2Cl)nc1-c1cccs1	12
COc1ccccc1NC(=O)c1cc(S(=O)(=O)NCc2ccccc2)ccc1F	8
Cc1cccc(N(CC(=O)NC(C)(C)C)C(=O)CNC(=O)c2cccs2)c1C	16
C=CCCN([C@@H](C)C(=O)OC)S(=O)(=O)c1ccccc1Br	17
CC(C)CC(c1nnnn1Cc1ccc(F)cc1)N1CCC(C(N)=O)CC1 (stereo not drawn)	8
CCN(Cc1cc(=O)n2ccsc2n1)Cc1nc2ccccc2c(=O)[nH]1	14
O=C(COc1ccccc1[N+](=O)[O-])Nc1ccc(Br)cc1	7
C=CCN(c1cccc(C(F)(F)F)c1)S(=O)(=O)c1cccc(C(=O)OCC(=O)Nc2ccccc2)c1	5
CCOC(=O)Nc1c2ccccc2nc2ccccc12	18
CNC(=O)COC(=O)/C=C/c1ccc(F)cc1	6
S=c1[nH]nc(-c2cccs2)n1/N=C/c1cccs1	12

# The results go on.
structure	Biofilm kill mix
COc1ccc(/C=C/C(=O)O)cc1S(=O)(=O)N1CCC(C)CC1	21
O=[N+]([O-])c1cccc(CSc2nc3ccccc3[nH]2)c1	5
CCOC(=O)C1(CC2CCCCO2)CCN(Cc2nc(-c3cccs3)oc2C)CC1 (stereo not drawn)	-7
COc1ccc(CSc2nc3ccccc3c(=O)[nH]2)cc1F	29
CCN(CC(=O)NC1CCS(=O)(=O)C1)Cc1nc2c(Br)cc(Br)cc2c(=O)[nH]1 (stereo not drawn)	10
Cc1ccc(NC(=O)CCSc2ccccc2)c(C)c1	8
Cc1cc(C)n2c(SCC(=O)N(CC(C)C)c3c(N)n(CC(C)C)c(=O)[nH]c3=O)nnc2n1	16
CCOC(=O)Cc1cnc(NC(=O)CSc2nc(N)cc(=O)[nH]2)s1	15
CCO[C@@H]1OC(C(=O)NC2CC2)=C[C@H](c2csc3ccccc23)[C@H]1CCCO	20
COc1ccc(N2CN=C3SCC(=O)N3C2)cc1	12
CC(=O)N(OCc1ccc(OC(C)C)c(Cl)c1)C(C)=O	6
CC1CCN(C(=O)CC#N)CC1	14
O=C(N/N=C/c1ccccc1[N+](=O)[O-])c1ccc2nc[nH]c2c1	19
COc1ccc(NC(=O)c2cc(=O)[nH]c(=O)[nH]2)cc1S(=O)(=O)Nc1ccccc1Cl	7
CC(Oc1ccccc1)C(=O)N1CCN=C1SCc1cccc(F)c1 (stereo not drawn)	21
O=C(CCCOc1ccccc1)NCCc1nc2ccccc2[nH]1	25
COCCNC(=O)Cn1c(=O)n(Cc2ccc(C(=O)NCCc3ccc(OC)c(OC)c3)cc2)c(=O)c2ccccc21	-3
COc1ccc(/C=N\NS(=O)(=O)c2ccc(Br)cc2)cc1COc1ccccc1[N+](=O)[O-]	-9
CN(C)c1ccnc2sc(C(=O)c3ccc(Br)cc3)c(N)c12	11
Cc1nc2cc(NC(=O)Nc3ccccc3Cl)ccc2n1C	-15

# Structural class, the compounds so far containing a CF3 group (4)
structure	Biofilm kill mix
O=C(NC1(C(F)(F)F)NC(=O)N(c2ccc(F)cc2)C1=O)c1ccncc1 (stereo not drawn)	-7
CC(C)CNC(=O)COC(=O)c1cccc(S(=O)(=O)NCC(F)(F)F)c1	22
CC(C)(C)CN1CCNC(=O)C1CC(=O)NCCc1ccccc1C(F)(F)F (stereo not drawn)	12
C=CCN(c1cccc(C(F)(F)F)c1)S(=O)(=O)c1cccc(C(=O)OCC(=O)Nc2ccccc2)c1	5

# Remaining list, next part:
structure	Biofilm kill mix
O=C(Cn1ccc(C(F)(F)F)n1)N/N=C/c1ccc(N2CCOCC2)cc1	15
Cc1ccc(OCC(=O)Nc2cnn(CCCC(=O)O)c2)c([N+](=O)[O-])c1	13
Cc1nonc1OCCCNc1ccc([N+](=O)[O-])cc1Cl	7
CSCCC(NC(=O)c1ccccc1)C(=O)OCC(=O)N(C)CCC#N (stereo not drawn)	13
C=C(C)c1cccc(C(C)(C)NC(=O)N2CCC(C(N)=O)CC2)c1	8
CN(C)c1cccc2c(/C=N/O)ccc(N(C)C)c12	11
O=C(Nc1ccccc1)c1cc([N+](=O)[O-])ccc1NCc1cccnc1	12
Cc1cc(C(=O)NNC(=S)NCc2ccco2)nn1C	17
Cc1cc(C)c(S(=O)(=O)Nc2ccnc(-c3cccnc3)n2)c(C)c1	5
O=C(COC(=O)c1cc[n+]([O-])cc1)Nc1ccc(SC(F)F)cc1	9
CCCc1c(C)nc2ccccc2c1SCCC#N	10
O=C(/C=C/c1ccco1)N(Cc1ccccc1)C1CCS(=O)(=O)C1 (stereo not drawn)	35
Cc1cc(=O)n2[nH]c(C)cc2n1	-6
S=C1NC(c2cccs2)=CC(c2ccc(Br)cc2)N1 (stereo not drawn)	10
O=C(COC(=O)C1CC(=O)N(Cc2ccccc2)C1)c1ccc(Br)cc1 (stereo not drawn)	-15
CC1CCCCN1S(=O)(=O)c1ccc(N(C(=O)c2cnccn2)C(C(=O)NC2CCCC2)c2cccs2)cc1 (stereo not drawn)	12
CCn1c(SCC(=O)N/N=C/C=C\c2ccco2)nc2ccccc21	11
O=C(O)c1ccccc1C(=O)c1ccc2c(c1)N(Cc1ccc(Cl)c(Cl)c1)C(=O)CO2	8
NC(=S)N/N=C/c1ccc(Br)o1	14
O=C(COc1ccc(Cl)cc1)c1ccc(O)cc1O	19

# By substructure: the compounds so far with a furan ring, fused or not.
structure	Biofilm kill mix
COc1ccccc1N1CCN(C(=O)c2cc(C)oc2C)CC1	11
CCOC(=O)c1oc2c(c1C)C(=O)CCC2	13
CCOC(=O)/C(C#N)=N/Nc1c(S(=O)(=O)Cc2ccco2)csc1C(=O)OC	13
COc1ccc(NC(=O)/C(C#N)=C\c2ccc(N3CCOCC3)o2)cc1	25
CCOC(=O)C1=NN(C(=O)c2ccco2)C2(CC2)C1	14
CC(=C/C(=O)O)/C=C/c1ccc(Cl)o1	14
Cc1cc(C(=O)NNC(=S)NCc2ccco2)nn1C	17
O=C(/C=C/c1ccco1)N(Cc1ccccc1)C1CCS(=O)(=O)C1 (stereo not drawn)	35
CCn1c(SCC(=O)N/N=C/C=C\c2ccco2)nc2ccccc21	11
NC(=S)N/N=C/c1ccc(Br)o1	14

# Next section:
structure	Biofilm kill mix
COc1ccc2cc(C3CC(c4cccs4)=NN3C(C)=O)c(Cl)nc2c1 (stereo not drawn)	16
Cc1cc(/C=N/N2CCN(C)CC2)c(C)n1-c1ccccc1F	9
CN(Cc1ccc(F)cc1)Cc1nc(CCc2ccccc2)no1	25
N#C/C(=N\Nc1ccccc1[N+](=O)[O-])C(=N)N1CCCCC1	4
CSc1nnc(C)c(=O)n1COC(=O)c1cc(Cl)ccc1[N+](=O)[O-]	15
CCCC(=O)Nc1sc2c(c1C(=O)OCC)CC(C)(C)OC2	-6

# In a second layout: two of the compounds above
COc1ccc2cc(C3CC(c4cccs4)=NN3C(C)=O)c(Cl)nc2c1 (stereo not drawn)
  Biofilm kill mix: 16

Cc1cc(/C=N/N2CCN(C)CC2)c(C)n1-c1ccccc1F
  Biofilm kill mix: 9
